Screens deposited in PubChem by National Center for Advancing Translational Sciences (NCATS).
HTT promoter inh – Primary qHTS for Identification of Small Molecule Inhibitors of Huntingtin Promoter Activity | HEK293 HTT promoter firefly luciferase reporter (activity 0% = vehicle and -100% = no light), 24 h | Potency, µM (titrated, usually from 57.5 µM), without a hit: at the highest dose activity change, negative = inhibition, usual class: inhibitors | actives 0.93% (n = 48,000); active = well fitted inhibition curve with a large enough effect; inconclusive = small, poorly fitted or top-dose-only effect; inactive = no such curve, though single readings can be large or run the other way; also: nearly all actives have a fitted effect of over 50% in size
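Quantitative HTS used concentration series of up to 57.5 uM final on HEK293 luciferase reporter cells, 24 h at 37 degrees C. Readout was Dual-Glo firefly luminescence.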
PMP22 txn prim – Cell-based coincidence reporter assay to measure PMP22 gene transcription in S16 Pmp22-F2sN cells - Primary screen; AID 1508649, 2021; Potency, µM (titrated, usually from 57.5 µM), without a hit: at the highest dose activity change, negative = inhibition, usual class: inhibitors; S16 Pmp22-F2sN Schwann cells (luciferase reporters placed in the Pmp22 gene), FLuc/NLuc coincidence luminescence, 24 h; actives 2% (n = 43,000); active = clear falling dose curves in both reporters; inconclusive = both reporters move, but less clearly or upward; inactive = either reporter flat; the % is the NLuc reporter signal; also: % is scaled to controls: 0 for no effect and ±100 for the full control effect; some results filed as inactive show a strong effect at the top dose
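S16 Schwann cells carrying FLuc/NLuc coincidence reporter in the Pmp22 3' UTR treated with compound 24 h at 37C; FLuc then NLuc luminescence read sequentially by dual-luciferase reagents.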
Numbers without * were called inactive; u = inconclusive; x = not tested or not shown; & = joins results of further samples; [ ] = remark or other dose. Potency is read from the fitted curve at half-maximal effect.

SMILES | HTT promoter inh | PMP22 txn prim
COc1ccc(CCNC(=O)c2c(C)nn(-c3ccc(F)cc3)c2-n2cccc2)c(OC)c1OC | u | u
Cc1cccc(CN2CCN(C(c3ccccc3)c3ccc(Cl)cc3)CC2)c1 (centres undefined) | -2.2%&1.2% | x
Cc1nn2c(=O)cc(COc3ccc(/C=C(\C#N)C(=O)Nc4ccc(F)cc4)cc3)nc2s1 | -5.2% | u
CCOc1ccc(NC(=O)c2cc3cc4ccc(C)cc4nc3o2)cc1 | 8.9% | -2.6%
CC(=O)Nc1ccc(NC(=O)C2CCCN(S(=O)(=O)c3ccc4c(c3)CCCC(=O)N4)C2)cc1 (centres undefined) | -0.3% | -12.9%
COc1ccc(-n2cc(-c3ccc4c(c3)OCO4)n(CC(=O)Nc3cccc(C)c3C)c2=O)c(OC)c1 | u | -5.5%
COc1ccc(C2=C(C)C(=O)N(Cc3ccc(C(=O)NCc4ccccc4C)cc3)S2(=O)=O)cc1 | u | -21.0%
COc1ccc(NC(=O)Cn2c(=O)c3ccccc3n3nncc23)c(OC)c1 | -15.7% | -2.8%
CN(C(=O)c1ccc2c(c1)N(Cc1cccc(Cl)c1)C(=O)c1ccccc1S2(=O)=O)C1CCCCC1 | u | -27.3%
O=C(Cn1nc(-c2ccc(Cl)cc2)ccc1=O)NCc1ccccc1Cl | -8.5% | -12.0%
CCOC(=O)c1cccc(NC(=O)Cn2ncc3c(=O)oc4ccccc4c32)c1 | 3.2% | -13.1%
CCOc1ccc(C(=O)Nc2cccc(NC(=O)c3ccc(C(C)(C)C)cc3)c2)cc1Br | 8.2% | -12.1%
Cc1cccc(CNC(=O)Cn2ccc3cc(S(=O)(=O)N4CCCCCC4)ccc32)c1 | u | u
COc1ccc(C(=O)CC2(O)C(=O)N(CCc3ccccc3)c3ccc(Br)cc32)cc1OC (centres undefined) | u | -18.3%
CCOc1ccc(NC(=O)CSC2=Nc3ccccc3C3=NC(CC(=O)NCc4ccc5c(c4)OCO5)C(=O)N23)cc1 (centres undefined) | 1.0% | -28.3%
COC(=O)c1cnn(-c2ccc(C(=O)Nc3cccc(C(C)=O)c3)cc2)c1N | -6.9% | 4.1%
CCOc1ccc(N(CC)C(=O)CCc2nc(-c3ccccc3F)no2)cc1 | -17.7% | u
COc1ccc(Nc2c(-c3ccco3)nc3cccc(C)n23)cc1 | -32.8% | -13.7%
COCCN1C(=O)c2oc3ccc(C)cc3c(=O)c2C1c1ccc(C(=O)OC)cc1 (centres undefined) | 2.0% | -0.2%
COc1ccc(N2CCN(CCCNC(=O)Nc3ccccc3Cl)CC2)cc1 | -10.2% | -21.3%
Cc1cccc(N2CCN(S(=O)(=O)c3ccc4oc(=O)c5ncn(C)c5c4c3)CC2)c1C | -10.3% | -7.6%
CCN(Cc1ccccc1)Cc1c(O)ccc2c(=O)c(-c3ccc(Cl)cc3)c(C(F)(F)F)oc12 | -25.5% | 14.1%
CCCC(=O)N1CCN(c2nc3c(OC)ccc(C)c3s2)CC1 | -18.8% | u
CCOC(=O)c1c(C)[nH]c(C)c1S(=O)(=O)N1CCN(c2ccccc2OC)CC1 | -11.4% | -68.0%
COc1ccc(-c2cc(C(F)(F)F)nc(NCc3ccccc3)n2)cc1 | -27.1% | -6.6%
CCOC(=O)CSc1nc2cc3c(cc2c(=O)n1CCCCCC(=O)NCc1ccc(OC)cc1)OCO3 | -15.7% | u
OC[C@H]1OC(O)C[C@@H](O)[C@H]1O (some centres undefined) | 3.2% | x
Cc1ccc(CNC(=O)c2cccc(Nc3nc4ccccc4n4nnnc34)c2)cc1 | 19.4% | 11.3µM*
Cc1ccc(Cl)cc1-n1c(=O)cc(N2CCN(c3ccccc3)CC2)[nH]c1=O | -14.5% | -3.7%
CCn1cc(C(=O)NCCc2ccc(Cl)cc2)c(=O)c2cc(S(=O)(=O)N3CCOCC3)ccc21 | -13.2% | -0.9%

Two records picked at random from those above:
SMILES | HTT promoter inh | PMP22 txn prim
CCn1cc(C(=O)NCCc2ccc(Cl)cc2)c(=O)c2cc(S(=O)(=O)N3CCOCC3)ccc21 | -13.2% | -0.9%
CCN(Cc1ccccc1)Cc1c(O)ccc2c(=O)c(-c3ccc(Cl)cc3)c(C(F)(F)F)oc12 | -25.5% | 14.1%

(next part)
SMILES | HTT promoter inh | PMP22 txn prim
CC(=O)NCc1c(I)c(NC(C)=O)c(I)c(C(=O)O)c1I | 13.0% | x
CC(=O)N1c2ccccc2C(=O)C1N1CCN(c2cccc(C)c2C)CC1 (centres undefined) | -15.7% | -10.5%
Cc1ccccc1NC(=O)c1ccc2c(c1)c(C)c(C)n2Cc1ccccc1 | -24.6% | -59.8%
O=C(CSc1ncc(-c2ccccc2)[nH]1)Nc1ccc(F)cc1F | -4.9% | 1.9%
Cn1c(=O)c2cc(C(=O)NC3CCCCCC3)sc2c2ccccc21 | u | u
CC1Cc2cc(S(=O)(=O)NCc3ccccc3)ccc2N1C(=O)C1CCC1 (centres undefined) | u | -50.2%
CCOc1cc(CNc2ccc(C(=O)O)cc2)ccc1OCc1ccccc1 | u | u
O=C(NCCc1ccc(F)cc1)C(=O)NCC(c1cccs1)S(=O)(=O)c1ccc(F)cc1 (centres undefined) | u | u
Cn1cc(S(=O)(=O)N2CCCCCC2)cc1C(=O)N1CCN(c2ccccc2F)CC1 | -24.3% | u
COc1ccccc1NC(=O)CCn1c(=O)oc2cc(Cl)ccc21 | -2.1% | -34.6%
COc1cccc(CNC(=O)C(C)n2ccc3cc(S(=O)(=O)N4CCCCCC4)ccc32)c1 (centres undefined) | u | u
CCOc1cc(CNc2ccc(O)cc2)ccc1OCc1ccc(Cl)cc1 | 10.4% | 7.81µM*
CCCCOc1ccc(C(=O)NCc2cn3cccc(C)c3n2)cc1 | -10.5% | 6.5%
Cc1cccc(OCc2ccc(-c3nc(C#N)c(NCc4cccnc4)o3)o2)c1 | u | u
COc1ccc(C(=O)Nc2cccc(OCc3cc(=O)n4c5c(sc4n3)CCCC5)c2)cc1OC | 2.0% | 18.5%
O=c1oc2ccccc2cc1-c1nc(-c2cccc(Cl)c2)cs1 | -17.4% | 6.2%
Cc1ccc(Nc2cc(C)nc3nc(Cc4ccc(Cl)cc4)nn23)cc1 | u | u
O=c1cc(-c2ccccc2)n2c(SCc3ccc(Br)cc3)nnc2[nH]1 | -9.4% | -92.2%
CCn1c(C(=O)NCc2ccc(C)cc2)cc2sc(Cl)cc21 | -27.5% | -1.7%
CC(=O)Nc1nonc1-c1nnc(SCc2ccc(Cl)cc2)n1C | -19.7% | 5.8%

Compound profiles, as listed above. Values in the order: HTT promoter inh | PMP22 txn prim
Profile of `O=c1oc2ccccc2cc1-c1nc(-c2cccc(Cl)c2)cs1` = -17.4% | 6.2%
Profile of `CCOc1cc(CNc2ccc(O)cc2)ccc1OCc1ccc(Cl)cc1` = 10.4% | 7.81µM*
Profile of `CCn1c(C(=O)NCc2ccc(C)cc2)cc2sc(Cl)cc21` = -27.5% | -1.7%
Profile of `CCCCOc1ccc(C(=O)NCc2cn3cccc(C)c3n2)cc1` = -10.5% | 6.5%

Remaining list, next part
SMILES | HTT promoter inh | PMP22 txn prim
C1CCN2C[C@@H]3C[C@@H](CN4CCCC[C@@H]34)[C@H]2C1 | -5.8% | x
Cc1cccc2sc(N(Cc3cccnc3)C(=O)CCOc3ccccc3)nc12 | -10.0% | u
COc1ccccc1CNC(=O)c1cc2c(=O)oc3ccc(C)cc3c2s1 | -1.7% | u
Cc1cccc(NC(=O)C2CCN(S(=O)(=O)c3ccc4[nH]c5c(c4c3)CCCCC5)CC2)c1 | u | -2.6%
Cc1c(CCOc2ccc(C(=O)O)cc2)c2cc(Cl)ccc2n1C(c1ccccc1)c1ccccc1 | -3.3% | x
O=c1cc(COc2cccc(C(F)(F)F)c2)nc2sc3c(n12)CCCC3 | -4.5% | -19.3%
CC(C)c1nc2sc3c(N4CCCCC4)ncnc3c2c2c1CCCC2 | -1.2% | -1.1%
CC(C)CC(=O)NCC(c1ccc2c(c1)OCO2)N1CCN(c2ccc(F)cc2)CC1 (centres undefined) | -14.9% | 3.1%
CCN(CC)CCNC(=O)c1nn(C)c2c1CS(=O)(=O)c1ccccc1-2 | -4.1% | 26.0%
COC(=O)c1ccc(OCC2c3cc(OC)c(OC)cc3CCN2C(=O)c2cccc(C)c2)cc1 (centres undefined) | -53.8% | u
COCCNC(=O)CCCn1c(SCc2ccccc2C)nc2c(sc3ccccc32)c1=O | u | u
COc1ccc(OC)c(S(=O)(=O)N2Cc3ccccc3CC2C(=O)Nc2ccc(C)cc2C)c1 (centres undefined) | -27.4% | u
Cc1ccc(Cl)cc1N1CCN(CCCNC(=O)c2nnc(Cc3cccc(Cl)c3)o2)CC1 | u | u
Oc1c(C(c2ccccc2F)N2CCCCC2)sc2nc(-c3ccco3)nn12 (centres undefined) | 14.2% | 10.8%
CCOc1ccc(Nc2oc(/C=C/c3cc(OC)c(OC)c(OC)c3)nc2C#N)cc1 | -4.2% | u
O=C(CCS(=O)(=O)c1cccc2nonc12)Nc1cccc(F)c1 | -0.4% | -6.7%
CCCCOc1ccc(-c2nonc2NC(=O)c2ccco2)cc1 | u | u
COc1ccc(S(=O)(=O)NCC(c2ccc(N(C)C)cc2)N2CCCC2)cc1F (centres undefined) | -8.0% | -8.6%
O=S(=O)(NCCc1csc(-c2ccc(F)cc2)n1)c1ccc(Cl)cc1 | u | u
CCOc1ccc(CCNC(=O)Cn2ccc3cc(S(=O)(=O)N4CCCCCC4)ccc32)cc1 | u | -10.2%
CCc1ccccc1NC(=O)Cn1nnc2sc3c(c2c1=O)CCC(C(C)(C)C)C3 (centres undefined) | -19.5% | u
CCC1CCCCN1CCCNC(=O)c1ccc2c(c1)N(Cc1cccc(Cl)c1)C(=O)c1ccccc1S2(=O)=O (centres undefined) | u | u
COc1ccccc1-c1nnc(SCCOc2ccccc2C)o1 | -5.9% | -7.2%
NC(=O)Cc1cccc(C(=O)c2ccccc2)c1N | -4.2%&-5.9% | x
CCCc1nccn1S(=O)(=O)c1cc(Br)ccc1OC | -13.1% | 32.7%
Cc1ccc(S(=O)(=O)c2nc(-c3cccs3)oc2SCC(=O)Nc2cc(C)cc(C)c2)cc1 | u | u
COc1ccccc1CNC(=O)C(=O)NCC(c1ccc2c(c1)OCO2)N1CCOCC1 (centres undefined) | -17.2% | -42.1%
Cc1ccc(-n2ncc3c(NCCC4=CCCCC4)ncnc32)cc1 | -15.9% | 17.5%
CCOC(=O)c1ccccc1NC(=O)CN1C(=O)CC(c2ccccc2)Sc2ccccc21 (centres undefined) | u | u
CCc1ccc(NC(=O)C2CCN(c3nnc(-n4c(C)ccc4C)s3)CC2)cc1 | -26.7% | -18.4%
CC1=C(CC(=O)O)c2cc(F)ccc2C1=Cc1ccc(S(C)=O)cc1 (centres undefined) | u | x
COc1ccccc1N(CC(=O)Nc1ccccc1F)S(C)(=O)=O | -7.6%[11.5 µM] | 1.7%
CCOc1ccccc1NC(=O)CSc1nc2c(oc3ccccc32)c(=O)n1C(C)C | -11.6% | -28.1%
Cc1ccc2oc(C(=O)Nc3ccc(S(=O)(=O)N(C)c4ccccc4)cc3)cc(=O)c2c1 | u | 16.4%
Cc1ccc(-c2nc(-c3cccs3)c(-c3cccs3)[nH]2)cc1 | u | -34.8%
CCn1c(=O)c2cc(C(=O)N(C)c3cc(C)ccc3C)sc2c2ccccc21 | -11.8% | u
CCc1ccc(N(CC)C(=O)CCn2cnc3onc(-c4ccc(F)cc4)c3c2=O)cc1 | u | u
CCOC(=O)c1c(C)[nH]c(C)c1S(=O)(=O)N1CCC(C(=O)NCc2cccc(OC)c2)CC1 | -10.7% | 4.1%
CC1CCc2c(sc3nc(-c4cc5ccccc5oc4=O)nc(Cl)c23)C1 (centres undefined) | -5.9% | -19.0%
Cc1ccc(CNC(=O)CSc2ccc(-c3sc(-c4ccccc4)nc3C)nn2)cc1 | -2.6% | u
O=C(Nc1ccc(-c2nc3cc(NC(=O)c4ccccc4F)ccc3o2)cc1)c1ccccc1F | -8.1% | 3.4%
CCOC(=O)c1ccccc1NC(=O)COc1cc(=O)n(CC)c2ccccc12 | -15.6% | u
CC(=O)c1cc(-c2ccccc2)n(CCC(=O)NC2CCCCC2)c1C | -23.9% | -3.4%

Given field by field: entries from further up
> CC1=C(CC(=O)O)c2cc(F)ccc2C1=Cc1ccc(S(C)=O)cc1 (centres undefined)
  HTT promoter inh: u
  PMP22 txn prim: x
> COc1ccccc1N(CC(=O)Nc1ccccc1F)S(C)(=O)=O
  HTT promoter inh: -7.6%[11.5 µM]
  PMP22 txn prim: 1.7%
> CCOc1ccccc1NC(=O)CSc1nc2c(oc3ccccc32)c(=O)n1C(C)C
  HTT promoter inh: -11.6%
  PMP22 txn prim: -28.1%
> Cc1ccc2oc(C(=O)Nc3ccc(S(=O)(=O)N(C)c4ccccc4)cc3)cc(=O)c2c1
  HTT promoter inh: u
  PMP22 txn prim: 16.4%
